# Bioassay records: PubChem, ICCB-Longwood Screening Facility, Harvard Medical School
# AID504770: E. coli YBA685 growth inhibition, screen for V. cholerae RctB inhibitors; E. coli YBA685 rctB-dependent plasmid, OD600 growth, 3 h; active compounds read low; z-score (concentration not given with the values); actives 0.27% (n = 130,000);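 active = z-score under -2 on both plates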;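 note: wells of about 30 µL received 100 nL stock; score is relative to mean and SD of the test wells; the first replicate is given; strong numbers were not always called active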
# CapD inh: CapD enzyme inhibition. AID 492967. z-score (concentration not given with the values). actives 0.23% (n = 140,000). purified CapD enzyme, fluorescence intensity read-out; active compounds read low; some hits fall short of the stated cut;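 active = z-score under -4 in either of two replicates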;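 note: stock transfer was 100 nL into about 40 µL; score is relative to mean and spread of the plate; one replicate is shown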
# * = called active by the depositor; i = inactive; / = not tested or not shown. This is a random part of the collection; any-hit rate near 0.37%.
nr	SMILES	AID504770	CapD inh
1	CC1CCCC(C)N1C(=O)c1cccc2c1-c1ccccc1C2=O (stereo not given)	0	0.29
2	N#Cc1cnoc1N1CCCc2ccccc21	0.4	-2.4
3	Cn1c(-c2ccc3ccccc3n2)[n+](C)c2ccccc21	-0.4	0.065
4	COc1ccc(CC(=O)Nc2nnc(SCc3ccccc3)s2)cc1OC	-0.9	-0.87
5	Cc1cc(-c2nnnn2-c2cc(Cl)cc(Cl)c2)no1	-0.25	-0.33
6	O=c1[nH]c2ccccc2c(=O)n1/N=C/c1cc(Cl)cc(Cl)c1O	0.15	/
7	Cc1onc(-c2ccccc2)c1-c1ccnn1S(=O)(=O)c1ccc(Cl)cc1	-0.15	9.6
8	Cc1nn(C(C)C(=O)NC(C)C)c(=O)c2cc3sccc3n12 (stereo not given)	0.65	0.53
9	CS(=O)(=O)n1cc(C(F)(F)F)ccc1=O	-0.65	-0.58
10	CS(=O)(=NC(=O)Nc1ccccc1)c1cccs1 (stereo not given)	-0.9	0.04
11	Cn1[nH]c(=O)cc1Nc1ccccc1	/	0.11
12	CCOC(=O)C1=C(C)N=c2s/c(=C/c3ccc(Br)s3)c(=O)n2C1c1cccs1 (stereo not given)	/	-0.23
13	CCOc1ccc(S(=O)(=O)N2CCN=C2c2ccccc2)cc1	-0.55	-0.075
14	N#CC1C=Cc2ccccc2N1C(=O)c1ccccc1 (stereo not given)	/	0.43
15	Fc1ccccc1N1CCN(Cc2cc(-c3ccccc3Cl)on2)CC1	/	-0.52

# Arranged by formula weight (highest first): six of the compounds above.
nr	SMILES	AID504770	CapD inh
4	COc1ccc(CC(=O)Nc2nnc(SCc3ccccc3)s2)cc1OC	-0.9	-0.87
7	Cc1onc(-c2ccccc2)c1-c1ccnn1S(=O)(=O)c1ccc(Cl)cc1	-0.15	9.6
3	Cn1c(-c2ccc3ccccc3n2)[n+](C)c2ccccc21	-0.4	0.065
14	N#CC1C=Cc2ccccc2N1C(=O)c1ccccc1 (stereo not given)	/	0.43
2	N#Cc1cnoc1N1CCCc2ccccc21	0.4	-2.4
11	Cn1[nH]c(=O)cc1Nc1ccccc1	/	0.11

# More records
nr	SMILES	AID504770	CapD inh
16	COc1cc(C(C#N)N2N=C(c3ccccc3)CC2c2ccccc2)ccc1O (stereo not given)	/	1.9
17	COc1ccc(C2=NN(CC(=O)NCC(OC)OC)C(=O)CC2)cc1	0.3	-0.34
18	COC(=O)C1C(O)=C(C=Nc2ccccc2)C(=O)CC1(C)C (stereo not given)	0.6	/
19	O=c1cc(CNc2cccc(F)c2)nc2ccc(Br)cn12	-0.1	/
20	CNC(=O)n1c(C(F)(F)F)nc2ccccc21	-0.7	-0.05
21	CC(=O)Nc1nc2ccc(N=Cc3nc(-c4cccc5ccccc45)oc3O)cc2s1	/	-0.7
22	Cc1nc(N2CCOCC2)c2c(C)c(C(=O)NCCC3=CCCCC3)sc2n1	/	0.82
23	CCOC(=O)C1=C(C)N=c2s/c(=C/c3ccccc3OC)c(=O)n2C1c1ccc(OC(C)=O)c(OC)c1 (stereo not given)	/	0.6
24	O=C(NNc1c(Cl)cc(Cl)cc1Cl)c1ccc(=O)[nH]n1	-0.75	/
25	COC(=O)CCc1nc2cc(Cl)ccc2n(Cc2ccccc2)c1=O	-0.15	1.2
26	N#CCN(CC#N)C(=O)c1cc(-c2ccccc2)nc2ccccc12	0.05	/
27	CC(=O)O[C@H]1C(=O)[C@@]2(C)C([C@H](OC(=O)c3ccccc3)[C@]3(O)C[C@H](OC(=O)[C@H](O)[C@@H](NC(=O)c4ccccc4)c4ccccc4)C(C)=C1C3(C)C)[C@]1(OC(C)=O)CO[C@@H]1C[C@@H]2O (stereo not given in full)	-0.4	0.54
28	Cc1cc(OCC(=O)NC(C)(C)C)cc(C)c1Cl	-0.25	0.095
29	COC(=O)/C=C1\NC(=O)CS1	1.2	/
30	COc1cc2c(c(OC)c1OC)COC2=O	/	-0.91
31	O=C(c1ccco1)N1CCN(C(=O)C2CCCN(c3nnc(-n4cccc4)s3)C2)CC1 (stereo not given)	-0.35	-0.05
32	CC(C)NC(=O)NC1C2CC3CC(C2)CC1C3 (stereo not given)	-1.6	/
33	CC(=O)NC(Cc1c[nH]c2ccccc12)C(=O)NCCOc1cc(C)ccc1C(C)C (stereo not given)	/	-0.6
34	CCOC(=O)CSc1nc2c(sc3ccccc32)c(=O)n1CCCC(=O)NC1CCCC1	-0.65	0.6
35	Cc1ccc(NC(=O)NC(C)c2c(-n3cccc3)sc(C)c2C)cc1 (stereo not given)	-0.35	-1.5
36	O=C(Nc1ccc2oc(-c3ccc(Br)cc3)nc2c1)c1ccc([N+](=O)[O-])cc1	/	-0.47
37	N#Cc1cc2sc3nc4ccccc4n3c2cc1C#N	0.2	/
38	Nc1nonc1NC(=O)CSc1ncccc1C(=O)O	-0.25	-0.18
39	CSC1=N/C(=C\c2ccc(Cl)cc2)C(=O)N1CCc1c[nH]c2ccccc12	0.45	0.41
40	Cc1ccc(F)cc1N1C(=O)C(N2C(=O)c3c(Cl)c(Cl)c(Cl)c(Cl)c3C2=O)C1c1cccs1 (stereo not given)	/	-0.4
41	O=C(Cn1c2c(c(-c3ccccc3Cl)cc1=O)CCC2)NC1CC1	0	11
42	CS(C)=C1C(=O)NC(=O)N(c2ccccc2F)C1=O	-0.35	0.24
43	CC(=O)Nc1ncc(Cc2cccc(Cl)c2)s1	-0.1	i
44	CC1(c2ccccc2)Nc2ccccc2-c2nc3ccccc3n21 (stereo not given)	0.4	1.1
45	COc1ccccc1OCc1nnc(SCCN2CCOCC2)o1	-0.25	/

# Some of the entries so far, in transposed form:
17) COc1ccc(C2=NN(CC(=O)NCC(OC)OC)C(=O)CC2)cc1
18) COC(=O)C1C(O)=C(C=Nc2ccccc2)C(=O)CC1(C)C (stereo not given)
19) O=c1cc(CNc2cccc(F)c2)nc2ccc(Br)cn12
20) CNC(=O)n1c(C(F)(F)F)nc2ccccc21
21) CC(=O)Nc1nc2ccc(N=Cc3nc(-c4cccc5ccccc45)oc3O)cc2s1
22) Cc1nc(N2CCOCC2)c2c(C)c(C(=O)NCCC3=CCCCC3)sc2n1
entry no.	17	18	19	20	21	22
AID504770	0.3	0.6	-0.1	-0.7	/	/
CapD inh	-0.34	/	/	-0.05	-0.7	0.82

# Remaining list, next part.
nr	SMILES	AID504770	CapD inh
46	O=C(/C=C/c1ccccc1)Nc1nnc(-c2ccco2)o1	1.9	/
47	CC(=O)Nc1ccc(C(=O)OCC(=O)N2CC3(C)CC2CC(C)(C)C3)cc1 (stereo not given)	1.1	-1
48	O=C(CSc1nnc(COc2ccccc2Cl)o1)NC(=O)NC1CCCC1	-0.65	/
49	CC1CCC(C(C)C)C(=O)/C1=C/c1ccc(N)cc1 (stereo not given)	-0.3	0.1
50	COc1cccc2cc(C(=O)Nc3cccc(Cn4cccn4)c3)c(=O)oc12	-0.1	0.02
51	Cc1cccc(OC(C)c2nc3ccccc3[nH]2)c1 (stereo not given)	-0.25	-0.15
52	Cc1cccn2c(=O)c(/C=C(\C#N)C(=O)NCCc3ccccc3)c(NCCOCCO)nc12	1.2	/
53	O=C(NCC12CC3CC(CC(C3)C1)C2)c1nc2ncccn2n1	1.1	-0.045
54	CCc1ccc(NS(=O)(=O)c2ccc(-n3cccn3)cc2)cc1	0.05	-0.045
55	Cc1ccc(C(C(=O)NCc2ccccc2)N(C(=O)c2snc(C(N)=O)c2N)c2ccc3c(c2)OCCO3)o1 (stereo not given)	-0.25	/
56	CCC1CN(C(=O)Nc2ccc(OC)cc2)c2ccccc2S1 (stereo not given)	-0.65	0.17
57	Cc1cc(/C=N\Nc2ccc([N+](=O)[O-])cc2)c2c(C)ccc(C(C)C)cc1-2	/	-0.29
58	Cc1nnc(SCC(=O)N2CCC(C)CC2)c2nn(-c3ccccc3)c(C)c12	-0.45	-0.48
59	CCCn1c(=O)c2ccccc2n2c(SCC(=O)NC(=O)NC)nnc12	-0.05	/
60	O=C(NC1CC1)c1c(Cl)cccc1Cl	-0.95	0.035
61	O=S(=O)(c1ccc(Oc2ccc(-c3nnco3)cc2)nc1)N1CCC(Cc2ccccc2)CC1	0.75	/
62	CC(=O)C1=NN(c2ccc(Cl)cc2)C(c2ccccc2OCc2c(Cl)cccc2Cl)N1c1ccc(Cl)c(Cl)c1 (stereo not given)	/	14
63	Cc1oc(-c2ccccc2)nc1C(=O)Nc1ccccc1C(=O)Nc1ccc2c(c1)OCO2	0.7	/
64	O=C1C(Cl)=C(Cl)C(=O)c2ccccc21	/	-0.42
65	Cc1nnc(SCC(=O)Nc2ccc3c(c2)OCCO3)s1	1.4	-0.14
66	O=C(Nc1ccccc1)Nc1ccc(Oc2cccnc2)nc1	1.2	0.18
67	Cn1c(CSCC(=O)Nc2ccccc2)n[nH]c1=S	/	0.14
68	Cc1ccc2cc(CCNC(=O)c3ccco3)c(=O)[nH]c2c1	-1.2	2.8
69	CN1C(=O)/C(=C\c2ccc(C(=O)N3CCC4(CC3)OCCO4)cc2)SC1=S	0.4	/
70	CCC1(C)CC(CC(=O)OC(C)CN(C)C)(c2ccccc2)CCO1 (stereo not given)	-0.85	0.32
71	O=S(c1cccc(C(F)(F)F)c1)c1ccc2nnc(Cl)n2n1 (stereo not given)	1.9	-0.09
72	O=C(Nc1ccccc1-c1nc2ccccc2s1)c1cccc2ccccc12	/	1
73	O=C(CCc1nc2cccnc2n1-c1ccccc1)NCc1ccccc1	-0.9	-0.2
74	CN1CC=C(c2noc(CCC(=O)N3CCN(c4ccccn4)CC3)n2)CC1	-0.2	4
75	COc1ccc(OC)c(NC(=O)CCN2CCN(c3ccccc3F)CC2)c1	0.45	0.76
76	O=C(OCc1ccc(Br)cc1)c1ccc(Br)o1	-0.1	0.18
77	COc1cccc(-c2nn(C)c3sc(C(=O)N4CCCc5ccccc54)cc23)c1	1.2	0.035
78	COc1cc(C2C3=C(CC(C)(C)CC3=O)Nc3ccccc3N2C(C)=O)ccc1OCc1ccccc1 (stereo not given)	/	4.1
79	Cn1cc(C=C2C(=O)CC(C)(C)CC2=O)c2ccccc21	1.7	-1.1
80	O=c1[nH]cnc2c1nnn2Cc1ccc(F)cc1	-1.4	0.18
81	COC(=O)CSc1nc2sc3c(c2c(=O)n1C1CCCCC1)CC(C)(C)OC3	/	-0.33
82	COC(=O)c1sc(Br)c(Br)c1O	/	-0.37
83	CCOC(=O)c1c(/N=C/C2C(=O)NC(=O)NC2=O)sc2c1CCCCC2	0.2	-0.005
84	Cc1ccc(NC(=O)C2=C(O)c3sccc3N(C)S2(=O)=O)cc1	/	-0.56
85	C/C(=N\OCC(=O)Nc1ccc2c(c1)OCO2)c1cc2ccccc2o1	1.2	/
86	Nc1ncc2c(n1)CC(c1ccco1)CC2=O (stereo not given)	-0.7	/
87	Cc1sc2c(c1C)C(O)=C(C(=O)Nc1ccc(Cl)cc1)S(=O)(=O)N2C	-1.1	-0.41
88	CCN(CC)S(=O)(=O)c1cccc(C(=O)Nc2nnc(Cc3cccc(C)c3)s2)c1	/	-0.43
89	C=CCn1cnc2c(NCc3ccccc3)ncnc21	-0.35	0.35
90	NCC1CC2C=CC1C2 (stereo not given)	-0.2	/
91	CCOC(=O)c1sc(=S)n(-c2ccc(Cl)cc2)c1N	/	-0.48
92	O=C(Cc1cccc2ccccc12)Nc1ccc(I)cc1	0.35	-0.56
93	OC1(c2ccc(F)cc2)CN(c2ccc(Br)cc2)C2=[N+]1CCCS2 (stereo not given)	/	0.56
94	N=c1nc(-c2ccccc2)ccn1O	-0.05	-0.95
95	O=C(CN1C(=O)C2CC=CCC2C1=O)Nc1ccccc1C(=O)Nc1ccccc1 (stereo not given)	-0.8	/
96	Fc1ccc(Cn2cccc2C2=NC(c3ccccc3)CO2)cc1 (stereo not given)	-1.2	0.06
97	N#C/C(=C\c1ccsc1)S(=O)(=O)c1ccc(C(F)(F)F)cn1	-0.05	-0.065
98	O=C1Nc2ccccc2/C1=C\c1cn(CC(=O)N2CCCC2)c2ccccc12	0.05	-0.36
99	Cc1cc(C)nc(-n2ncc3c2CCCC3=O)n1	-0.5	-0.53
100	c1ccc(-c2nc3c(c(N4CCCCC4)n2)C2(CCCCC2)Cc2ccccc2-3)cc1	/	0.22
101	Cc1ccc(NC(=O)c2cccn(Cc3cccc(C(F)(F)F)c3)c2=O)c(C)c1	/	-1
102	Cc1nc(N2CCOCC2)nc(NC2CCCCC2)c1[N+](=O)[O-]	/	-0.69
103	NNC(=O)c1csc(COc2ccccc2Cl)n1	-0.55	0.15
104	O=C(O)C1=CSCCO1	0.55	0.81
105	CC(=O)N1CCN(C(=O)C2C3CC4CC(C3)CC2C4)CC1 (stereo not given)	-0.1	/

# Other records:
nr	SMILES	AID504770	CapD inh
106	COC(=O)Cc1coc2cc(C)c(Cl)cc12	0.45	0.08
107	CCOC(=O)c1ccc2[nH]cc(C(=O)OCC)c(=O)c2c1	-0.7	0.38
108	O=C(CSc1nnc(Cc2ccccc2)o1)NCc1ccco1	-0.1	/
109	O=C(COc1ccccc1)N/N=C/c1c[nH]c2cc(OCc3ccccc3)ccc12	/	2
110	Cc1cccc(NC2=NCCCS2)c1	-0.65	0.29
111	CN(Cc1cn(-c2ccccc2)nc1-c1ccc(F)cc1)C(=O)CCC(=O)O	-0.4	/
112	CCCCn1c(-c2ccc(N)cc2)nc2ccccc21	0.3	99
113	Cc1nn(-c2cccc(Cl)c2)nc1C(=O)N1CCN(C(=O)C2CC2)CC1	0.4	/
114	CS(=O)(=O)c1ccc(CN(C(=O)c2ccc(Cl)cc2)c2ccccn2)cc1	/	-0.62
115	O=C(Nc1ccc(-c2cn3ccsc3n2)cc1)C1CCCC1	1	/
116	COc1ccc(OC)c(C2C(C(=O)Nc3ccccn3)=C(C)NC3=C2C(=O)CCC3)c1 (stereo not given)	-0.25	-0.19
117	Cc1csc(C(=O)NNC(=O)c2ccc(-n3nc(-c4ccccc4)cc3-c3ccccc3)cc2)c1Cl	/	-0.025
